Source: PubChem
StopGo reporter: High Throughput Screening for Foot and Mouth Disease Virus Antivirals. human cells with a luciferase reporter of 2A StopGo recoding; control for the full effect not named in the record. Potency, µM (doses to about 57.9 µM), for the others: at the top dose signal change, negative = less light. actives 1.2% (n = 410,000). AID 1159524, 2015; active = well fitted falling curve with a large enough effect; inconclusive = small, poorly fitted or top-dose-only effect; inactive = no such curve, though single readings can be large or run the other way; tested in HEK293T cells; also: % is scaled to controls: 0 for no effect and ±100 for the full control effect; nearly all actives have a fitted effect of over 45% in size; luciferase light after 4 h
Cruzain Triton: qHTS Assay for Promiscuous and Specific Inhibitors of Cruzain (with detergent); Cruzipain (Trypanosoma cruzi), P25779; purified cruzain, Z-FR-AMC fluorescence, 0.01% Triton; Potency, µM, without a hit: max response, negative = inhibition, usual class: inhibitors; actives 0.43% (n = 200,000); active = well fitted curve in the direction sought with a large enough effect; inconclusive = small, poorly fitted or top-dose-only effect, or another doubt; inactive = no such curve, though single readings can be large; an effect the other way counts as inactive or inconclusive;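 also: plate controls were neutral wells for no effect and buffer without enzyme for full effect; nearly all actives have a fitted effect of over 40% in size; top concentration of the series not given in the record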
Target sequence (P25779 123-467 limits assumed): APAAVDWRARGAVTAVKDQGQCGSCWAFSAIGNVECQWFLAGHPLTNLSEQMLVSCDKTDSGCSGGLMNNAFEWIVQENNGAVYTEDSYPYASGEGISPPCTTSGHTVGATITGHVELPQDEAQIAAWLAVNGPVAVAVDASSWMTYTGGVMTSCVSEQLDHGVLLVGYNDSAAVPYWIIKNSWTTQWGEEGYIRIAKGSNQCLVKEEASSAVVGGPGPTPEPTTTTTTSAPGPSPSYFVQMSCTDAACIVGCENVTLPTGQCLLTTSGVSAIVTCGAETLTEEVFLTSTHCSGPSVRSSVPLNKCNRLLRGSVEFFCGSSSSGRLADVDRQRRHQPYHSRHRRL
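Enzyme 1.5 nM, Z-FR-AMC 2 uM, NaOAc 100 mM pH 5.5, DTT 5 mM, Triton X-100 0.01%; 15 min RT compound preincubation; kinetic ex360/em450, 60 s delta.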
MARV entry inh: qHTS for inhibitors of binding or entry into cells for Marburg Virus; Marburg virus pseudotyped entry inhibition, cell reporter; control for the full effect not named in the record; about a third of the inactives were read at about 46 µM; Potency, µM (highest dose often 37.8 µM), inactives show at the top dose activity change, negative = inhibition, actives largely listed as inhibitors; actives 1.8% (n = 300,000); active = well fitted inhibition curve with a large enough effect; inconclusive = small, poorly fitted or top-dose-only effect, or effect the other way; inactive = flat fitted curve, though single readings scatter; tested in HEK293 cells; about a fifth of its hits are not listed in these tables; also: % is scaled to controls: 0 for no effect and ±100 for the full control effect; luciferase read-out
NS1 function inh: qHTS Assay for Inhibitors of Influenza NS1 Protein Function. S. cerevisiae slowed by influenza A NS1, growth recovery by OD600. Potency, µM (series often up to 46.1 µM), without a hit: top-dose activity, positive = more growth. actives 0.4% (n = 270,000). AID 2326, 2010; also: actives are rising curves; nearly all actives have a fitted effect of over 50% in size
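A cell-based growth assay was used: compounds that relieve NS1-induced slow growth of budding yeast raise OD600. Assay medium was yeast nitrogen base with ammonium sulphate and -URA supplement, pH 6.0, with 2% galactose.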
RE007 growth inh: qHTS Assay for Inhibitors of the HIV-1 protein Vpr; S. pombe RE007 Vpr strain, BacTiter-Glo ATP luminescence, 24 h; control for the full effect not named in the record; Potency, µM (titrated, usually from 92.2 µM), inactives show at the top dose activity change, negative = less growth; actives 0.21% (n = 360,000); AID 651644, 2012; active = well fitted falling curve with a large enough effect; inconclusive = small, poorly fitted or top-dose-only effect; inactive = no such curve, though single readings can be large or run the other way;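 also: % is scaled to controls: 0 for no effect and ±100 for the full control effect; nearly all actives have a fitted effect of over 50% in size; the assay follows cell death caused by Vpr and the record does not say whether a fall means rescue or toxicity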
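Fission yeast RE007 carrying one integrated HIV-1 vpr copy, seeded at OD 0.01 in PMG+AL medium with 23 nL pinned compound. Grown 24 h at 30 degrees; viability read by BacTiter-Glo luminescence after 5 min.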
Cruzain inh noDet: qHTS Assay for Promiscuous and Specific Inhibitors of Cruzain (without detergent); Cruzipain (Trypanosoma cruzi), P25779; purified cruzain, Z-FR-AMC fluorescence, no detergent; Potency, µM, for inactives: max response, negative = inhibition, most hits filed as inhibitors; actives 2.3% (n = 200,000); AID 1476, 2009; active = well fitted curve in the direction sought with a large enough effect; inconclusive = small, poorly fitted or top-dose-only effect, or another doubt; inactive = no such curve, though single readings can be large; an effect the other way counts as inactive or inconclusive;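 also: plate controls were enzyme without inhibitor for no effect and buffer without enzyme for full effect; nearly all actives have a fitted effect of over 40% in size; top concentration of the series not given in the record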
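Detergent-free condition (0.00005% Triton X-100) in acetate buffer pH 5.5 with DTT. 1.5 nM enzyme and compound were pre-mixed 15 min, then 2 uM Z-FR-AMC substrate added; reaction progress from fluorescence change between first and third reads (60 s).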
SARS PLpro yeast: qHTS of Yeast-based Assay for SARS-CoV PLP. Potency, µM (top dose mostly 32.9 µM), for inactives: at the top dose activity, positive = growth rescue. actives 0.19% (n = 330,000). S. cerevisiae expressing SARS-CoV PLpro, growth rescue; control for the full effect not named in the record. AID 485353, 2010; also: 0% is about no effect; nearly all actives have a fitted effect of over 55% in size; growth read by luminescence after 48 h
LASV entry inh: qHTS for Inhibitors of binding or entry into cells for Lassa Virus. Lassa virus pseudotype entry inhibition, cell reporter; control for the full effect not named in the record. Potency, µM (highest dose often 37.9 µM), without a hit: at the top dose activity change, negative = inhibition, actives largely listed as inhibitors. actives 1.2% (n = 300,000). AID 540256, 2011; active means well fitted inhibition curve with a large enough effect; inconclusive means small, poorly fitted or top-dose-only effect, or effect the other way; inactive means flat fitted curve, though single readings scatter; tested in HEK293 cells; also: % is scaled to controls: 0 for no effect and ±100 for the full control effect; nearly all actives have a fitted effect of over 50% in size; luciferase read-out
Numbers without * were called inactive; ? = inconclusive; nt = no result given; & = joins results of further samples; [ ] = dose if it differs, or a comment. Unless noted, calls follow the shape of the dose curve; as a rule, active means well fitted rising curve with a large enough effect; inconclusive means small, poorly fitted or top-dose-only effect; inactive means no such curve, though single readings can be large or run the other way. Potency is read from the fitted curve at half-maximal effect.

SMILES	StopGo reporter	Cruzain Triton	MARV entry inh	NS1 function inh	RE007 growth inh	Cruzain inh noDet	SARS PLpro yeast	LASV entry inh
O=C(Nc1cccc([N+](=O)[O-])c1)Nc1cccc([N+](=O)[O-])c1	?	nt	?	nt	-3%	nt	-1%	?
Cc1ccc(NC(=O)Cn2cccc2C2=NC(c3ccccc3)CO2)c(C)c1 (configuration not stated)	-17%	-2.8%	3%	-3%	6%	-17%	2%	0%
Cc1cc(C)c[n+](-c2[nH]c(=O)sc2/C=N/NC([S-])=Nc2ccccc2)c1	4%	-14%	12%	5%	1%	3%	-44%	20%
Cc1cccc(N(CC(=O)NCCC2=CCCCC2)S(C)(=O)=O)c1C	-10%	1.1%	-10%	-3%	3%	5%	-1%	13%
Fc1cccc(Cl)c1Cn1nnc2c(N3CCC4(CC3)OCCO4)ncnc21	?	-15%	-1%[46.1 µM]	-6%	-9%	1%	-9%	5%
N#CCc1ccc(NC(=O)Nc2cccc3ccccc23)cc1	29%	nt	nt	2%	4%	nt	1%	nt
O=C(COC(=O)c1ccccc1OCc1ccc(Cl)cc1)NC1CC1	-20%	-3.1%	-3%[46.1 µM]	-24%	-15%	3%	4%	29%
[O-][n+]1c2c(c3c4non(O)c4ccc31)CCCC2	nt	-9.3%	3%	-116%	-26%	2%	-51%	-4%
Cc1ccn(CCC(=O)Nc2ccc(-c3ccno3)cc2)n1	2%	nt	nt	-6%	-8%	nt	-1%	nt
O=[N+]([O-])c1c(Nc2ccc(Br)cc2)ccc2nonc12	-23%	nt	?	-3%	13%	nt	-4%	11%
CCCCCc1ccc(-c2ccc(=O)[nH]n2)cc1	30%[activator]	-7.5%	3%&3%	-119%	4%	-8%	-11%	5%
CCOC(=O)c1cc(S(=O)(=O)Nc2ccc(C)cc2Cl)[nH]n1	-9%	-1.5%	nt	nt	nt	4%	nt	-3%[46.1 µM]
Cc1ccc(NC(=O)/C=C/c2ccco2)cc1F	11%	-11%	nt	nt	nt	-7%	nt	?
O=C(CNC1CCCCCC1)Nc1ccc(S(=O)(=O)NC2CC2)cc1	nt	-0.8%	?	1%	6%	0%	4%	13%
Cc1ccc(C)c(NC(=O)c2cc(S(=O)(=O)NCc3ccccc3)ccc2F)c1	14%	1.4%	nt	nt	nt	-13%	nt	18%[46.1 µM]

Looked up by compound from the list above:
SMILES	StopGo reporter	Cruzain Triton	MARV entry inh	NS1 function inh	RE007 growth inh	Cruzain inh noDet	SARS PLpro yeast	LASV entry inh
CCCCCc1ccc(-c2ccc(=O)[nH]n2)cc1	30%[activator]	-7.5%	3%&3%	-119%	4%	-8%	-11%	5%
O=C(COC(=O)c1ccccc1OCc1ccc(Cl)cc1)NC1CC1	-20%	-3.1%	-3%[46.1 µM]	-24%	-15%	3%	4%	29%

The results go on:
SMILES	StopGo reporter	Cruzain Triton	MARV entry inh	NS1 function inh	RE007 growth inh	Cruzain inh noDet	SARS PLpro yeast	LASV entry inh
Nc1ccc(C(=O)Nc2nc3ccccc3s2)cc1	-31%	-9.1%	nt	-11%	-27%	5%	-17%	nt
CCCC(C)n1[nH]c(=O)c2c1NC(=O)CSC2c1ccc(OC)c(OC)c1 (configuration not stated)	-26%	3.4%	-19%	-27%	-8%	4%	1%	5%
Cc1ccccc1OCc1nc(-c2ccc(NC(=O)c3ccco3)cc2)no1	-29%	-4.9%	?	-44%	-5%	2%	-15%	?
CC(C)c1ccc(CNc2ccc([N+](=O)[O-])cn2)cc1	32%[activator]	nt	?	nt	?	nt	-14%	?
CCOc1ccccc1CNC(=O)C1CCCN(S(=O)(=O)c2ccc3c(ccn3C)c2)C1 (configuration not stated)	-10%	-2.5%	nt	nt	nt	?	nt	-9%[46.1 µM]
COc1c(C)cc(S(=O)(=O)Nc2cccc(-c3ccc(N4CCOCC4)nn3)c2)c(C)c1C	26%	-5.1%	nt	nt	nt	?	nt	1%[46.1 µM]
CC1(c2ccccc2Cl)NC(=O)N(CC(=O)Nc2ccc(N3CCCCC3)cc2)C1=O (configuration not stated)	-8%	nt	-9%	nt	7%	nt	0%	?
COc1ccc(OCCN2CCN(S(=O)(=O)c3ccccc3C#N)CC2)cc1	?	nt	1%	nt	-3%	nt	0%	-45%[46.1 µM]
Cc1ccccc1OCC(O)CN1CCC(C)CC1 (configuration not stated)	3%	nt	?	0%	-2%	nt	-1%	-21%
Cc1nnc(-c2ccc(Oc3ccc(Cl)cc3)c([N+](=O)[O-])c2)o1	-6%	-5.9%	7%	0%	-5%	?	7%	3%
CCOc1ccccc1NC(=O)CCn1c(-c2ccc(OC)cc2)cc(C(C)=O)c1C	-17%	-2.5%	nt	nt	nt	-1%	nt	-19%[46.1 µM]
COC(=O)c1sccc1NC(=O)Cn1cnc2c1c(=O)n(C)c(=O)n2C	0%	1.0%	12%	-4%	3%	-6%	-3%	25%
O=C1c2ccccc2C(Nc2ccc(S(=O)(=O)N3CCCCC3)cc2)N1c1ccccn1 (configuration not stated)	11%	-6.6%	nt	-41%	15%	-13%	-23%	nt
COC(=O)c1ccc(C(=O)Nc2cc(Cl)ccc2Cl)cc1NC(=O)c1ccc(N(C)C)cc1	nt	-4.8%	-16%	5%	-8%	3.2µM*	-1%	7%
Cc1nc(-c2ccc(F)cc2)sc1CCNC(=O)c1ccco1	29%	-2.3%	nt	nt	nt	2%	nt	?
COCCCn1c(SC(C)C(=O)NC2CC2)nc2ccccc2c1=O (configuration not stated)	-16%	nt	3%[46.1 µM]	nt	-16%	nt	10%	18%
CN(c1ccccc1)c1ccc([N+](=O)[O-])c2nonc12	3%	nt	0%	-39%	-26%	nt	-5%	1%
COC(=O)C(Cc1ccccc1)NC(=O)CCCC(=O)NCc1cccc(OC)c1 (configuration not stated)	6%	nt	nt	-20%	7%	nt	1%	nt
CCN(CC)S(=O)(=O)c1ccc(NC2CCCc3ccccc32)nc1 (configuration not stated)	-2%	-6.6%	-4%	-26%	1%	-18%	4%	-2%
COc1ccc(C(=O)Nc2ccc(NC(=O)c3ccccn3)cn2)cc1	4%	nt	-2%[46.1 µM]	5%	-18%	nt	-7%	?
COc1ccc(S(=O)(=O)N2CCCCCC2)cc1C(=O)N(C)Cc1ccco1	1%	nt	0%	nt	11%	nt	7%	-12%
O=C(O)/C=C\C(=O)Nc1ccccc1C(=O)NC1CCCCC1	18%	nt	?	1%	-8%	nt	-1%	15%
CCCSc1nc2[nH]ncc2c(=O)[nH]1	1%	-2.1%	-2%	9%	2%	4%	?	0%
COc1cccc(CNC(=O)CCCn2c(=O)c3cccn3c3ccc(F)cc32)c1OC	-21%	-0.6%	nt	nt	nt	1%	nt	-1%[46.1 µM]
C#CCOc1ccc(C2C3=C(CCCC3=O)N(CC(=O)O)C3=C2C(=O)CCC3)cc1Br	-5%	nt	0%[46.1 µM]	1%	1%	nt	1%	-7%
Cc1ccc(N(C(=O)c2csnn2)C(C(=O)NC2CCCCC2)c2ccccn2)c(C)c1 (configuration not stated)	18%	nt	-4%[46.1 µM]	10%	-5%	nt	4%	-9%
Cc1ccc(F)cc1NC(=O)Nc1cc(C(C)(C)C)nn1C	-7%	nt	9%	1%	4%	nt	0%	-15%
CC(C)c1nn2c(=O)cc(COC(=O)c3ccccc3Cl)nc2s1	26%	-5.4%	nt	nt	nt	7%	nt	?
COc1ccc(/C=C2/C(=O)OCc3cc(OC)c(OC)cc32)cc1	-3%	-9.6%	?	-23%	9%	-12%	-24%	?
Cc1ccc2ncc([N+](=O)[O-])n2c1	-16%	-3.7%	8%	4%	4%	-13%	2%	-25%
Cc1ccc(C)c(OC(=O)c2cccc(S(=O)(=O)N3CCN(C)CC3)c2)c1	-29%	nt	-7%	-9%	4%	nt	-5%	-4%
COc1ccc(-c2cc(C(=O)Nc3ccccc3SC)no2)cc1OC	19%	-8.4%	?	4%	0%	-7%	-3%	-4%
Fc1ccc(CN2CCN(C(c3ccccc3)c3ccccc3)CC2)cc1	?	nt	nt	-23%	-4%	nt	4%	nt
O=C(Nc1ccccc1F)c1cnc(N2CCCCC2)c2ccccc12	-27%	-9.4%	nt	nt	nt	1%	nt	-28%[46.1 µM]
CCCCCc1ccc(-c2cn(Cc3ccc(C)cc3)nn2)cc1	7%	nt	nt	21%	-7%	nt	0%	nt
O=C(O)CSCC(=O)NCc1cccc(C(F)(F)F)c1	-6%	nt	nt	1%	3%	nt	-1%	nt
Cc1cccc(C(=O)Nc2cc(NC(=O)c3cccs3)ccc2C)c1	1%	nt	-29%	-14%	2%	nt	20%	-4%
CCN(CC)S(=O)(=O)c1ccc(N/N=C/c2ccc(O)cc2O)nc1	-29%	-9.2%	3.3µM*	11%	-8%	?	5µM*	2.3µM*
Cn1c(Cn2c(=O)sc3ccccc32)nnc1SCC(=O)N1CCc2ccccc21	3%	-3.3%	nt	3%	5%	-1%	7%	nt
CC(=O)c1ccc(N2CCN(C(=O)c3cc(-c4cccnc4)nc4ccc(Br)cc34)CC2)cc1	5%	nt	?	-4%	-8%	nt	0%	?
CC(C)(C)NC(=O)C1CCN(C(=O)c2ccco2)CC1	-3%	nt	16%[46.1 µM]	15%	3%	nt	1%	?
COc1ccc(N2CCN(C(=O)CN3C(=O)NC(C)(c4ccc5ccccc5c4)C3=O)CC2)cc1 (configuration not stated)	?	nt	?	nt	28%	nt	1%	-22%
COCCN(Cc1cc2cc(C)c(C)cc2nc1Cl)C(=O)Nc1ccccc1	0%	5.9%	-22%	10%	-8%	-3%	1%	-9%
O=C(O)CCC1(C(=O)O)OCCc2ccccc21 (configuration not stated)	nt	4.8%	-1%	11%	2%	-9%	-1%	18%
O=Cc1ccc(OCc2ccc3c(c2)OCO3)cc1	39%[activator]	nt	nt	-108%	4%	nt	-3%	nt
